eIF4H FP inh = inhibitors of RNA binding by human eIF4H | Q15056 | eIF4H fluorescence polarization binding assay | inhibition, % at 35 µM | 0.94% of 290,000 active | AID 2012;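 active = 50% or more with normal probe brightness, or confirmed in later tests; inconclusive = above 50% with abnormal brightness, or retests that disagree; inactive = below 50% or failed in later tests; about a fifth of its hits are not listed in these tables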;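 note: calls also rest on retests at 20 µM and on dose response follow-up; 0% = protein and probe with vehicle and 100% = probe without protein; strong numbers were not always called active; many hits fall short of the cut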
MT1-MMP act inh = MT1-MMP (human) activation inhibition; AID 651647; GFP/RFP ratio change, % at 20 µM; 0.061% of 360,000 active; P50281; HT1080 RFP-PRO-GFP cells, GFP/RFP ratio fluorescence, overnight; percent of plate control window, DMSO zero;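 active = GFP/RFP ratio change of at least 30% with cell ATP level not reduced by more than half and red fluorescence within 50% of control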; note: strong numbers were not always called active
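Material: RFP-PRO-GFP reporter HT1080 cells. Dosing: single-point 20 µM compound, 1% DMSO. Controls: DMSO and RFP-L50D-GFP cell wells. Timing: cells overnight before dosing, compound overnight, 37 °C, 5% CO2. Measure: GFP/RFP fluorescence ratio.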
PABP FP inh = blocks human PABP binding to poly(A) RNA | P11940 | fluorescence polarization | inhibition, % at 35 µM | 1% of 290,000 active | AID 2014;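 active = 50% or more with normal probe brightness, or confirmed in later tests; inconclusive = above 50% with abnormal brightness, or retests that disagree; inactive = below 50% or failed in later tests; about a fifth of its hits are not listed in these tables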;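 note: calls also rest on retests at 20 µM and on dose response follow-up; controls were probe without protein and protein plus probe with vehicle; some compounds called inactive have numbers as strong as hits; many hits fall short of the cut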
Target sequence (P11940 whole entry, looked up): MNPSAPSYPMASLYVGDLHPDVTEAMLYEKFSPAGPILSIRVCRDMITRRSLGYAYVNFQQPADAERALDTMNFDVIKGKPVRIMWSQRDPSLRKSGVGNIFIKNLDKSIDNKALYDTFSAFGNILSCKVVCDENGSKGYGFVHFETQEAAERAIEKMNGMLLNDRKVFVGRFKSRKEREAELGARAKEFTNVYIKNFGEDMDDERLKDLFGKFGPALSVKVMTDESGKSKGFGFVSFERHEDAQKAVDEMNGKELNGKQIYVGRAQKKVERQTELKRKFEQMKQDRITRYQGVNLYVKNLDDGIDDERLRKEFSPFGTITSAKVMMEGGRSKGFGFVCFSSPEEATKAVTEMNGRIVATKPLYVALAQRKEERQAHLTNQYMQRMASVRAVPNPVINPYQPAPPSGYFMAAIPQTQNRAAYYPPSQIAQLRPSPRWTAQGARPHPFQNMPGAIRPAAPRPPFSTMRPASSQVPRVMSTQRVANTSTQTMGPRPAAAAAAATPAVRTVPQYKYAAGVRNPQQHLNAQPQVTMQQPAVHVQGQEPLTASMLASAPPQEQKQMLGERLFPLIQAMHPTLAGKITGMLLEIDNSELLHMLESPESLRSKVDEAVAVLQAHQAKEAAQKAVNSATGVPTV
Rce1 inh = blocks yeast Ras-converting enzyme | Q03530 | 0.27% of 290,000 active | calls only | yeast membranes, quenched prenylated peptide cleavage fluorescence;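 active = fall in fluorescence gain of 50% or more versus controls, with final raw signal at or below 3038400; inconclusive = same 50% fall but final raw signal above 3038400; inactive = fall in fluorescence gain under 50%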;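 note: plate controls were neutral control wells for no effect and wells lacking membranes for full effect; tested at 10 µM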
Target sequence (Q03530 whole entry, looked up): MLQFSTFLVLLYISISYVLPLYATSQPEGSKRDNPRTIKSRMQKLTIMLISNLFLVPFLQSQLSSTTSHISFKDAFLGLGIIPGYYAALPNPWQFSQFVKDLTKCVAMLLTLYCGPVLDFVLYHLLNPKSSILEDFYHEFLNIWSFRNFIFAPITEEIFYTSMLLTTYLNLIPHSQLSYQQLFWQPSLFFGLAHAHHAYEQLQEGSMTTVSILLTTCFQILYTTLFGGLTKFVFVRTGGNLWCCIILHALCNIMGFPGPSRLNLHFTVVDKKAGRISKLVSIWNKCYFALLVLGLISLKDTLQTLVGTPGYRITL
CSC inhib = blocks cancer stem cells; inhibition, % at 7.5 µM; cancer stem cell-like cells viability, luminescence; AID 2717; 1.1% of 300,000 active;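 active = mean at 75% or more and at least half the replicates too; inconclusive = mean and replicates disagree; tested in HMLE shEcad cells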;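 note: 0% = median of negative and 100% = median of positive control wells; the first replicate is given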
Yeast UUG start = modulators of start codon recognition fidelity in yeast | S. cerevisiae UUG-firefly luciferase reporter, luminescence/redox ratio | activity score, % at 18.7 µM | 0.13% of 350,000 active | AID 602363;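 active = replicate mean at a twofold rise or more, about +100% in these data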;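 note: firefly luciferase made from a UUG start codon reports start codon fidelity; reporter light over untreated wells divided by growth signal over untreated wells; some hits fall short of that in this replicate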
Env fusion inh = inhibitors of HIV Env-mediated cell fusion. HeLa-JRFL Env/CEM21 cell fusion, luciferase. inhibition, % at 12.3 µM. 1.1% of 360,000 active;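 active = mean replicate inhibition score of at least 50 and every replicate individually at or above 50; inconclusive = only one of the two criteria met; inactive = mean below 50 and not all replicates reaching 50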;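 note: 0% = plate neutral controls and 100% = maraviroc near 300 nM; one replicate is shown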
eIF4H FP inh retest = recorded beside eIF4H FP inh, whose call it bears; inhibition, %; compound at 20 µM; confirmation average;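 mean of two retest wells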
PABP FP inh retest = further read-out of PABP FP inh, marked with its call; inhibition, %; compound at 20 µM; confirmation repeats;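 mean of two retest wells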
MT1-MMP act inh RFP = recorded beside MT1-MMP act inh, whose call it bears; RFP signal change, %; measured here: RFP expression control read;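 0 = vehicle wells; hits needed this value within 50% of zero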
* marks the source's active call; other numbers are inactive results; i = inactive; u = inconclusive; x = not tested or not shown.

SMILES | eIF4H FP inh | MT1-MMP act inh | MT1-MMP act inh RFP | PABP FP inh | Rce1 inh | CSC inhib | Yeast UUG start | Env fusion inh | others
COc1ccc2cc(CN(CCO)C(=O)c3ccccc3F)c(=O)[nH]c2c1 | -10 | 1 | 6 | -5 | i | -9 | -9 | x
CCOC(=O)c1cccc(NC(=O)CCn2cccc2)c1 | -5 | 2 | 5 | 5 | i | 0 | x | x
CCOC(=O)Cn1nnc(-c2ccc(S(C)(=O)=O)cc2)n1 | -8 | -4 | -5 | -5 | i | -6 | x | -5
CC(C)COc1ccc(C(=O)Nc2cc(S(=O)(=O)N3CCOCC3)ccc2N2CCCC2)cc1 | x | 4 | -4 | x | x | 5 | 5 | -7
O=c1oc(-c2ccco2)nc2ccccc12 | -11 | 4 | 1 | 49 | i | 5 | x | x
Cc1ccc2nc(CSc3nc(C)nc4c3oc3ccccc34)[nH]c2c1 | x | -5 | -1 | x | x | x | -11 | 14
Cc1ccccc1N1CC(C(=O)Nc2ccc(S(=O)(=O)N3CCOCC3)cc2)CC1=O (stereo not given) | -19 | 0 | 0 | 4 | i | x | 14 | 5
Cc1oc(-c2cc(F)ccc2F)nc1CN1CCCN(C(=O)c2ccco2)CC1 | 4 | -4 | 3 | -1 | i | 11 | x | 3
NC(=O)N/N=C/c1cc(F)cc(F)c1 | -1 | 7 | 8 | -10 | i | 6 | -9 | -18
Cc1cc(-c2nnc(SCC(=O)N3C(C)CCCC3C)o2)no1 (stereo not given) | 0 | -3 | 7 | -10 | i | -8 | -20 | 15
[O-][n+]1onc2c1CCc1c-2nc(-c2ccccc2)n1OCc1ccccc1 | 0 | 6 | 1 | 1 | i | -17 | -32 | x
COc1cc(NC(=O)c2cccs2)c(C(=O)OCC(=O)NC(=O)NCc2ccccc2)cc1OC | -1 | 13 | -3 | 3 | i | -4 | -9 | x
[O-][N+]1=C(c2cccs2)CN(O)C1 | -2 | -11 | 4 | 5 | i | -1 | -8 | 6
Cc1ccnn1CC(=O)N/N=C/c1ccc2c(c1)OCO2 | -4 | -1 | 4 | -6 | i | -7 | -11 | 16
CCOc1ncccc1C(=O)Nc1nnc(C)s1 | -2 | 0 | 0 | u | i | 1 | x | -11
O=C(CNC(=O)c1ccco1)NCC(=O)OCC(=O)c1ccc(Cl)c([N+](=O)[O-])c1 | -8 | 4 | 7 | 7 | i | -4 | -9 | 5
COc1cccc(CC(NC(C)=O)C(=O)NC2CCN(S(=O)(=O)c3cccc4ccccc34)CC2)c1 (stereo not given) | 3 | 0 | -4 | -4 | i | x | -15 | -4
Cc1c(CN2CCC(n3nccc3NC(=O)c3cccc(F)c3)CC2)cnn1C | 3 | 3 | 3 | 3 | i | 2 | -9 | 5
CCOc1ccc(CCNC(=O)COC(=O)c2ccc(C)c([N+](=O)[O-])c2)cc1OCC | 2 | 0 | 7 | 9 | i | 2 | 5 | 5
Cc1ccc(S(=O)(=O)N2CCN(C(=O)CN3C(=O)NC4(CCCCC4)C3=O)CC2)c(C)c1 | x | -3 | -4 | x | i | 7 | -25 | 5
CCc1cccc(CC)c1NC(=S)NCCc1c(C)[nH]c2ccc(C)cc12 | 0 | x | x | -6 | i | 18 | -11 | -3
CCc1nnc(NC(=O)c2ccc(S(=O)(=O)N3CCCC(C)C3)cc2)o1 (stereo not given) | 2 | 2 | -1 | -10 | i | 32 | -20 | -1
C=CCn1c(CC(=O)Nc2cccc(OC)c2)nnc1SCC(=O)NC1CCCCC1 | -7 | 2 | -2 | 0 | i | -9 | x | 4
O=C(Nc1nncs1)C1(c2ccccc2)CCCC1 | -13 | -4 | -6 | 1 | i | -3 | -5 | x
CCOc1cc(NC(=O)c2cccs2)c(OCC)cc1NC(=O)CCC(=O)NCCN1CCOCC1 | 9 | -10 | -2 | -6 | i | -23 | x | 5

The last 2 entries of the section above open the next one:
SMILES | eIF4H FP inh | MT1-MMP act inh | MT1-MMP act inh RFP | PABP FP inh | Rce1 inh | CSC inhib | Yeast UUG start | Env fusion inh | others
O=C(Nc1nncs1)C1(c2ccccc2)CCCC1 | -13 | -4 | -6 | 1 | i | -3 | -5 | x
CCOc1cc(NC(=O)c2cccs2)c(OCC)cc1NC(=O)CCC(=O)NCCN1CCOCC1 | 9 | -10 | -2 | -6 | i | -23 | x | 5
O=c1[nH]c2cc3c(cc2cc1C(c1nnnn1Cc1ccccc1)N1CCCCCC1)OCCO3 (stereo not given) | 130 | -10 | -2 | 124* | i | 9 | 2 | -56 | eIF4H FP inh retest=11;PABP FP inh retest=63*
CCN1C(=O)/C(=C\N2CCN(c3cccc(Cl)c3)CC2)SC1=S | 1 | 1 | 2 | -14 | i | 100* | -13 | x
COc1ccc(-c2sc3cc(OC)c(OC)cc3c2C#CCCO)cc1 | x | 1 | -3 | x | x | 64 | -3 | -27
Cc1ccc(Cl)cc1N1CCN(C(=O)c2cc3c(=O)[nH]c4ccccc4c3n2C)CC1 | 12 | -2 | -22 | 2 | i | 16 | x | -27
CC(=O)c1cccc(NC(=O)C(C)OC(=O)CCn2c(C)csc2=O)c1 (stereo not given) | x | 0 | 3 | x | x | -6 | 22 | x
COc1ccc(-c2cc(C(=O)NCC3CCCO3)c3cc(C)ccc3n2)cc1 (stereo not given) | 1 | -4 | -4 | -6 | i | -3 | 14 | -24
CC(C)C[C@H]1CN=C(Nc2ccccc2)N1CC1CCC(C(C)(C)C)CC1 (stereo not given in full) | x | -5 | -15 | x | x | 79* | 5 | x
Nc1nc(Cl)cc(Sc2ccc(F)cc2)n1 | -11 | -3 | 1 | -4 | i | -9 | x | x
O=C(Nc1ccccc1Oc1ccccc1)c1ccc(Br)o1 | -6 | -11 | -9 | 1 | i | -9 | x | x
CCOC(=O)Cn1nnnc1CN(CCc1ccccc1)Cc1cc2cc(CC)ccc2[nH]c1=O | -7 | 1 | -2 | -1 | i | -8 | -7 | 119*
O=C(COc1ccc([N+](=O)[O-])cc1)Nc1cc(S(=O)(=O)N2CCCCC2)ccc1N1CCCCC1 | x | 3 | -5 | x | i | 0 | 6 | 3
O=C(Nc1ccccc1)[C@@H]1[C@@H]2C(=O)N(c3ccc(F)cc3)C(=O)[C@@H]2[C@H]2C=CC=NN21 | -1 | -1 | 4 | 11 | i | -14 | -2 | -8
Cc1cc(N2C(=O)CC(N3CCN(c4ccc(C(=O)c5cccs5)cc4)CC3)C2=O)no1 (stereo not given) | -10 | 0 | 0 | -6 | i | 0 | -21 | x
O=C(NCC(c1cccs1)N1CCOCC1)c1cnc(Cl)c(Cl)c1 (stereo not given) | x | 2 | 0 | x | x | -5 | -8 | x
Brc1ccc2nc(C3CCCCC3)c(CC3CCCCC3)n2c1 | x | -4 | -5 | x | x | x | -15 | 7
CC(=O)c1cc(C#N)c(N2CCOCC2)nc1C | -3 | 1 | 2 | -14 | i | 7 | -22 | -3
CN(CC(CC(=O)O)c1ccccc1)S(=O)(=O)c1ccc(Br)cc1 (stereo not given) | -2 | 0 | 8 | 16 | i | 10 | -7 | -34
CCC(=O)Nc1ccc(Oc2ccc3c(c2)C(=O)N(c2ccc(O)cc2)C3=O)cc1 | 4 | 2 | 1 | -7 | i | -10 | -3 | -23
O=C(N1CCCCC1)N1CCC(c2nc3ccccc3[nH]2)CC1 | -3 | -3 | 0 | 7 | i | -2 | 1 | 1
NC(=O)/C(=C\c1ccco1)NC(=O)c1ccc(Br)o1 | x | -2 | 6 | x | i | x | -4 | -9
CN1C(=O)c2cccc3c(S(=O)(=O)Nc4ccccc4F)ccc1c23 | -1 | 9 | 14 | 9 | i | 8 | -1 | -9
COCc1cc(C)nc(OCC(=O)N/N=C/c2ccc(-c3cc([N+](=O)[O-])ccc3Cl)o2)c1C#N | -5 | 4 | -3 | 2 | i | 9 | x | 10
Cc1nn(-c2ccccc2)c2[nH]c(=O)c(CNCC3CCCO3)cc12 (stereo not given) | -3 | 1 | -1 | -13 | i | -9 | -16 | x
CC(C)[C@H](NS(=O)(=O)c1ccccc1F)C(=O)OCC(=O)Nc1cccc(S(N)(=O)=O)c1 | x | -1 | -1 | x | x | -16 | -5 | u
CCN1C(=O)c2ccccc2S(=O)(=O)c2ccc(C(=O)NC(C)C)cc21 | -6 | -2 | -1 | -5 | i | -9 | -5 | -13
(list continues)
SMILES | eIF4H FP inh | MT1-MMP act inh | MT1-MMP act inh RFP | PABP FP inh | Rce1 inh | CSC inhib | Yeast UUG start | Env fusion inh | others
Cc1cc(N2C(=O)C(O)=C(C(=O)c3cc4ccccc4o3)C2c2ccc(OC(C)C)cc2)no1 (stereo not given) | 9 | 6 | -3 | 2 | i | -20 | -17 | -1
CC(C)(C)C(=O)NC(=S)Nc1ccc(F)cc1 | -4 | 1 | 1 | -5 | i | 1 | x | 9
CCCc1ccc(-c2cc(C(=O)NC3=NCCS3)c3ccccc3n2)cc1 | -2 | 2 | 5 | -2 | i | 68 | x | -74
NC(=O)CCn1ccc2ccccc21 | 2 | -1 | 4 | -12 | i | x | 2 | 1
COCCn1c(SCC(=O)NC2CCCC2)nc2cccnc21 | 4 | 1 | 1 | -10 | i | 2 | x | 1
CCN(C(=O)CSc1cc(C)c2ccccc2n1)C1CCS(=O)(=O)C1 (stereo not given) | -4 | 4 | 4 | 64 | i | 3 | x | -1 | eIF4H FP inh retest=-2;PABP FP inh retest=0
Cc1cc(SCC(=O)c2ccc(O)c(O)c2)nc2ccccc12 | 37 | -11 | -13 | 12 | x | 31 | x | -9
Cc1cc(C)c(NC(=O)COC(=O)CSc2ccc(Br)cc2C)c(C)c1 | -3 | 2 | 4 | -4 | i | 6 | -20 | -13
O=C(O)C1CCCCC1C(=O)NCCCc1ccccc1 (stereo not given) | -7 | 1 | 6 | -7 | i | -19 | -3 | -21
O=C(CCNS(=O)(=O)c1ccc2c(c1)CCC(=O)N2)NCc1ccc2c(c1)OCO2 | -2 | 0 | -1 | -4 | x | -16 | -8 | -7
Nc1nc(Cl)nc2ncn(Cc3ccccc3)c12 | 15 | 2 | 6 | 11 | i | -4 | -14 | 4

Compounds above containing a furan ring, fused or not, in the order listed:
SMILES | eIF4H FP inh | MT1-MMP act inh | MT1-MMP act inh RFP | PABP FP inh | Rce1 inh | CSC inhib | Yeast UUG start | Env fusion inh | others
O=c1oc(-c2ccco2)nc2ccccc12 | -11 | 4 | 1 | 49 | i | 5 | x | x
Cc1ccc2nc(CSc3nc(C)nc4c3oc3ccccc34)[nH]c2c1 | x | -5 | -1 | x | x | x | -11 | 14
Cc1oc(-c2cc(F)ccc2F)nc1CN1CCCN(C(=O)c2ccco2)CC1 | 4 | -4 | 3 | -1 | i | 11 | x | 3
O=C(CNC(=O)c1ccco1)NCC(=O)OCC(=O)c1ccc(Cl)c([N+](=O)[O-])c1 | -8 | 4 | 7 | 7 | i | -4 | -9 | 5
O=C(Nc1ccccc1Oc1ccccc1)c1ccc(Br)o1 | -6 | -11 | -9 | 1 | i | -9 | x | x
NC(=O)/C(=C\c1ccco1)NC(=O)c1ccc(Br)o1 | x | -2 | 6 | x | i | x | -4 | -9
COCc1cc(C)nc(OCC(=O)N/N=C/c2ccc(-c3cc([N+](=O)[O-])ccc3Cl)o2)c1C#N | -5 | 4 | -3 | 2 | i | 9 | x | 10
Cc1cc(N2C(=O)C(O)=C(C(=O)c3cc4ccccc4o3)C2c2ccc(OC(C)C)cc2)no1 (stereo not given) | 9 | 6 | -3 | 2 | i | -20 | -17 | -1
